Vif TR-FRET = HIV-1 Vif–A3G interaction blockers – biochemical, TR-FRET, GST-Vif 1-94, biotin-A3G peptide, dose response retest, primary screen (AID 1117319). TR-FRET GST-Vif / biotin-A3G peptide binding; higher % means a stronger effect; test concentration not given here; strong numbers were not always called active. inhibition, %; hits with a dose series show IC50 in µM. 260,000 tested, 0.57% active;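 active = above the screen mean plus three standard deviations and confirmed in dose response; inconclusive = results disagree or hit not tested in dose response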;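 note: Vif residues 1-94 fused to GST binding biotinylated APOBEC3G peptide 110-148; 0% = full assay without inhibitor and 100% = GST in place of GST-Vif; retest series ran down from 100 µM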
Beta apoptosis = blocks beta cell apoptosis | INS-1E cytokine-induced death, ATP luminescence, 48 h; percent of positive-control rescue, neutral wells zero | protection from apoptosis, % (concentration not given with the values) | 300,000 tested, 0.8% active;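 active = all replicates at 75% or more, or half of them and the mean; inconclusive = half reach 75% but not the mean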;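 note: 0% = cytokine-treated negative control wells and 100% = positive control rescue; higher means more ATP so stronger rescue from cytokine killing; wells of about 40 µL received 100 nL stock; the first replicate is given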
RanGTP-Impb inh = disruptors of Ran-importin-beta complex formation – biochemical, FRET, CFP-Ran, YFP-importin-beta, homogeneous, primary screen | AID 2216 | 300,000 tested, 1.1% active | cell-free CFP-Ran/YFP-importin-beta FRET ratio | inhibition, % (concentration not given with the values);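 active = most replicates above 15%; inconclusive = exactly half above 15%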;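 note: 0% = DMSO wells and 100% = Ran loaded with GDP instead of GTP; wells of about 40 µL received 100 nL stock; the first replicate is given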
A1 inh = inhibitors of the anti-apoptotic protein A1, read as caspase activation. caspase activation, % (test concentration not listed). 330,000 tested, 0.066% active. MEF A1-2A-BIM cells, Caspase-Glo 3/7 luminescence, 3 h; percent of clofoctol response, vehicle zero;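 active = over half of replicate activation scores above 10%, or exactly half above 10 with the replicate mean above 10; inconclusive = replicate mean below 10 yet half the replicates above 10; inactive = over half of replicates below 10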;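 note: wells of about 30 µL received 50 nL stock; many hits fall short of the cut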
LANA-H2B inh = blocks KSHV LANA binding to histone H2A/H2B | Q9QR71 | cell-free LANA-H2A/H2B peptide, fluorescence polarization | inhibition, % (no concentration beside the values) | 320,000 tested, 0.6% active; in the data active = inhibition mostly above about 10%, no sharp cut-off; inactive = mostly below about 6.7%;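 note: stock transfer was 7.5 nL into about 10 µL; 0% = median of vehicle wells and 100% = median of positive control wells; one replicate is shown; the record names a cut of 25% in any replicate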
Calb FLC = affects C. albicans growth with fluconazole; C. albicans CaCi-2 (fluconazole-resistant clinical isolate) + fluconazole, Alamar Blue growth, 48 h; growth inhibition, % (test concentration not listed); 300,000 tested, 0.57% active;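 active = most replicates above 75%; inconclusive = exactly half above 75%; inactive = most below 75%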;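 note: all wells also contain fluconazole at 8 µg/ml as a sub-toxic cotreatment; 0% = median of DMSO wells and 100% = median of geldanamycin control wells; wells of about 8 µL received 7.5 nL stock; the first replicate is given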
MLL AF4-AF9 inh = inhibitors of human MLL-AF4/AF9 interaction. AID 651704. P42568. 350,000 tested, 0.47% active. AlphaScreen, biotin-AF4 peptide binding to FLAG-AF9. inhibition, % at 10 µM;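 active = every replicate reaching a set inhibition limit, whatever the replicate mean, cut at about 25% in these data; inconclusive = mean inhibition reaches that limit but some replicates miss it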;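 note: 0% = plate neutral control median and 100% = total signal loss; the record names both 10 and 1 µM as test concentration; the first replicate is given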
Target sequence (P42568 whole entry, looked up): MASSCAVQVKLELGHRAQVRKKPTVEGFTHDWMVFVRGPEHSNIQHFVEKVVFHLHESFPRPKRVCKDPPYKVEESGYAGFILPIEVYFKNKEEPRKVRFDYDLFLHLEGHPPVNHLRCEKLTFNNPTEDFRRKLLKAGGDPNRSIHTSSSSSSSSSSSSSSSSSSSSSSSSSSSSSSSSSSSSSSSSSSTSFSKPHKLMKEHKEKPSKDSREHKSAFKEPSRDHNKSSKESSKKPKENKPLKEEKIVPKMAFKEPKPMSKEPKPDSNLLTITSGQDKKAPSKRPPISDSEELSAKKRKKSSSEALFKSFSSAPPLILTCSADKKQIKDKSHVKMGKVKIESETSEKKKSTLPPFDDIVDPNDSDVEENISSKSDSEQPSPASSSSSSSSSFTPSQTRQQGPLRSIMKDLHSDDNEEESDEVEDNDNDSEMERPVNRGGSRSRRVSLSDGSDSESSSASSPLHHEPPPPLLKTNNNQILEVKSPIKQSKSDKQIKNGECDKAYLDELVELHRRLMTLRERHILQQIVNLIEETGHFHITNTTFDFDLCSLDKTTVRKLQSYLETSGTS
T cruzi inh = T. cruzi replication inhibition. 300,000 tested, 1.4% active. inhibition, % (no concentration beside the values). T. cruzi beta-gal in NIH3T3, luminescence, 90 h;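 active = mean inhibition across valid replicates above about 55%, limit read from the data; inconclusive = mean below that limit but half or more replicates reach it; inactive = mean below it, under half of replicates reach it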;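 note: signal also drops with host cell toxicity which is not excluded here; 0% = plate median of DMSO wells and 100% = zero luminescence signal; higher percent means less beta-gal luminescence so fewer parasites; stock transfer was 50 nL into about 50 µL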
Starred values were filed as active, the others as inactive; i = inactive; ? = inconclusive; nt = no result given; & = joins results of further samples.

SMILES	Vif TR-FRET	Beta apoptosis	RanGTP-Impb inh	A1 inh	LANA-H2B inh	Calb FLC	MLL AF4-AF9 inh	T cruzi inh
Cn1ncc(C#N)c1NC(=O)C1CC(c2ccc(Cl)c(Cl)c2)=NO1 (stereo not drawn)	-7%	nt	-1.7	-1.5	-2.2	13	nt	-4
Cc1cc(C)cc(-c2nnc(SCC(=O)NC3CC3)o2)c1	2%	-3	nt	-0.1	-0.7	nt	0.4	nt
CN=c1scc(-c2ccccc2F)n1/N=C/c1ccc[nH]1	3%	8	-0.5	-7.6	-4.2	3	45*	44
CC(C)(C)c1ccc(C(=O)NCc2ccco2)cc1	nt	5	-1.2	-0.1	-0.2	-14	1.5	-22
CN1CCN(C(=O)/C(=C\c2cccs2)NC(=O)c2cccs2)CC1	1%	-2	2.5	0.2	2.5	-7	nt	1
COc1ccc(Cl)cc1NC(=O)CNc1ccccc1CN(C)C1CCCCC1	6%	3	5.0	-0.7	i	24	9.9	7
C=CCN(C(=O)c1cccc(N2C(=O)C3CC=CC(C)C3C2=O)c1)c1ccccc1 (stereo not drawn)	8%	-2	2.8	-0.3	-1.1	-3	0.9	4
O=C(Cn1nnc2ccccc2c1=O)NCCc1ccc(Cl)cc1Cl	5%	-5	2.8	0.0	5.2	-5	-0.4	9
O=C1C(Nc2ccccc2)=C(N2CCCCC2)C(=O)c2ccccc21	8%	83*	0.8	-1.2	8.3	8	nt	48
COc1cc(C(=O)Nc2cccnc2)cc(OC)c1OC	-5%	-2	?	0.9	-2.2	2	0.6	-21
Cc1cc(/C=C(\C#N)C(=O)N2CCCCC2)cc(C)c1O	nt	nt	-0.3	0.0	-1.9	11	6.1	1
COc1cc(/C=C2/C(=N)N3N=C(C(C)C)SC3=NC2=O)ccc1OS(=O)(=O)c1ccccc1	2%	4	5.0	-0.5	-4.3	11	0.1	16
O=C(CSCc1c(F)cccc1Cl)Nc1cccnc1	8%	3	0.5	0.0	-2.3	-7	0.7	-17
O=C(CN(CCO)c1ccccc1)Nc1cccc(S(=O)(=O)N2CCCC2)c1	9%	5	6.7	-1.0	-0.5	-21	1.8	3
COc1cc2ncnc(NCc3cccc(F)c3F)c2cc1OC	-2%	10	0.9	1.9	1.8	1	-1.0	24
OC(COc1ccc2ccccc2c1)CN1CCCC1 (stereo not drawn)	0%	-1	?	0.7	-5.5	?	1.8	3
COCCN1C(=O)c2oc3ccccc3c(=O)c2C1c1ccc(OC)c(OC)c1 (stereo not drawn)	13%	-8	-0.9	-0.9	-1.4	5	-5.0	-12
O=C(COC(=O)/C=C/c1ccc(Br)o1)NCCCN1CCCC1=O	nt	-6	7.4	0.0	-1.3	16	-2.6	-2
O=S(=O)(Cc1noc(-c2ccc(Cl)cc2)n1)Cc1ccco1	nt	-4	2.3	0.5	-0.7	-9	4.1	14
COc1cc2c(=O)n(CC3CCCO3)c(=O)n(CC(=O)Nc3cccc(Cl)c3)c2cc1OC (stereo not drawn)	-15%&-59%	-4	1.0	0.5	-2.2	-1	nt	2
Cc1ccc(CSCC(=O)N(C)CC(=O)Nc2ccccc2C(F)(F)F)cc1	-2%	-1	-0.6	0.6	2.4	1	-20	-15
CCc1ccccc1NC(=S)N(Cc1cccc(C)c1)c1cccnc1	nt	-4	-1.0	-0.4	-3.3	3	-1.7	-14
O=C(c1cc(-c2cccc(Cl)c2)on1)N1CCN(c2ccccc2)CC1	nt	-1	-0.5	0.3	-1.6	3	-3.6	-3
Cc1ccc2c(NC(=O)c3ccco3)cccc2n1	13%	4	-1.5	-1.3	1.8	-3	-1.5	-2
O=C(Cn1c2[n+](c3ccc(C(F)(F)F)cc31)CCCCC2)c1ccc2c(c1)OCCO2	10%	-3	nt	0.0	2.9	nt	1.5	68*

Some entries already given, limited to RanGTP-Impb inh.
SMILES | RanGTP-Impb inh
COc1cc2ncnc(NCc3cccc(F)c3F)c2cc1OC | 0.9
COc1cc(/C=C2/C(=N)N3N=C(C(C)C)SC3=NC2=O)ccc1OS(=O)(=O)c1ccccc1 | 5.0
COc1ccc(Cl)cc1NC(=O)CNc1ccccc1CN(C)C1CCCCC1 | 5.0
O=C(c1cc(-c2cccc(Cl)c2)on1)N1CCN(c2ccccc2)CC1 | -0.5
COc1cc(C(=O)Nc2cccnc2)cc(OC)c1OC | ?

New compounds follow.
SMILES	Vif TR-FRET	Beta apoptosis	RanGTP-Impb inh	A1 inh	LANA-H2B inh	Calb FLC	MLL AF4-AF9 inh	T cruzi inh
O=C(COC(=O)CNC(=O)c1ccc(Cl)cc1)NC1CCCCCC1	-3%	1	nt	-0.9	-10	nt	-3.2	nt
Cc1oc(-c2ccccc2Cl)nc1CSCC(=O)O	0%	nt	-0.1	nt	nt	2	-0.3	-13
COc1cc(-c2cc(-c3ccc(N)cc3)[nH]c(=O)c2C#N)cc(OC)c1OC	-2%	nt	-37	0.5	0.4	-6	-2.5	1
CCNC(=O)NC(=O)C(C)Sc1nc2ccccc2c(=O)n1-c1cccnc1 (stereo not drawn)	-8%	-1	-2.2	-0.5	2.2	-1	-0.1	1
O=C(COC(=O)C1CC1)Nc1ccc(N=Nc2ccccc2)cc1	nt	-1	1.3	-2.2	-2.2	-15	nt	-30
CCSc1nnc(NC(=O)CCC2CCCCC2)s1	nt	3	9.6	0.4	5.9	1	-2.3	1
N#CCCN1CCN(S(=O)(=O)c2ccc3c(c2)OCCCO3)CC1	-3%	5	-0.5	0.1	6.8	-1	nt	-14
CC(C)c1cccc(C(C)C)c1NC(=O)CN1C(=O)NC2(CCCC2)C1=O	-3%	-6	2.9	-0.3	2.3	5	-2.0	-7
Nc1ccc(-c2cnc[nH]2)cc1[N+](=O)[O-]	-6%	-6	13	0.5	0.1	12	4.0	-2
COc1ccc(N(CC(=O)NC2CCCCC2)C(=O)CNC(=O)c2ccco2)cc1	8%	-5	0.9	-0.5	-1.1	14	-1.7	-6
Cc1cc(S(=O)(=O)NCCN2CCOCC2)c(C)s1	8%	8	?	0.0	4.3	-11	nt	-4
CCc1ccc(N(CC(=O)NC(C)C)C(=O)CCC(=O)Nc2nccs2)cc1	-8%	1	5.7	0.7	-0.5	-1	-0.8	-24
CCOC(=O)C1CCN(C(=O)Cn2cc3c(n2)CCC(C)C3)CC1 (stereo not drawn)	2%	-7	4.3	0.1	0.9	4	-5.0	-13
Cc1cc(-c2ccc(N3C(=O)CCC3=O)c(C)c2)ccc1N1C(=O)CCC1=O	-4%	-6	5.6	0.4	3.0	0	nt	-8
Cc1ccccc1OCC(=O)Nc1ccc(S(=O)(=O)N2CCCC2)cc1	4%	-2	-3.8	1.2	nt	6	1.2	-8
O=C(NCc1ccccc1Cl)C1CCN(S(=O)(=O)N2CCCC2)CC1	nt	-2	-1.1	0.2	-0.8	-5	1.6	-3
Cn1c(N)c(C(=O)CSc2ccc3c(c2)OCCO3)c(=O)n(C)c1=O	-3%	6	-4.0	0.6	2.5	-5	nt	-6
COc1ccccc1NC(=O)CN1CCN(CC(=O)Nc2ccc(OCc3ccccc3)cc2)CC1	1%&-9%	7	6.4	0.6	-3.5	14	nt	-4
O/N=C(/CN(O)/C=C1/C=CC=N1)c1cccs1	1%	-4	?	-0.4	0.1	-1	nt	3
COc1ccc(/C=C/C(=O)NC(=S)Nc2cc3oc4ccccc4c3cc2OC)cc1	-1%	-7	nt	1.0	1.7	-11	-2.2	-14
CCN(CC)S(=O)(=O)c1ccc(NS(=O)(=O)c2ccc(C)c(C)c2)cc1	2%	-3	-0.2	-0.3	2.6	-3	nt	-1
CC(C)Cc1ccc(-c2cc(=O)[nH][nH]2)cc1	15%	-10	5.3	-0.5	0.0	5	-1.6	1
Cc1cccc(NC(=O)Cn2nc(-c3cccs3)ccc2=O)c1C	nt	-6	-0.2	-0.6	-3.4	-3	-0.1	9
Cc1ccc(N=C(NO)c2cnccc2C(F)(F)F)c(C)c1	1%	nt	-0.3	0.4	-2.3	11	-1.8	-9
CC(=O)Nc1ccc(Nc2nc(C(F)(F)F)nc3c2nnn3Cc2ccccc2Cl)cc1	nt	11	1.4	-0.3	2.2	-1	-1.3	40

Reprinted at random: 4 records from the list.
SMILES	Vif TR-FRET	Beta apoptosis	RanGTP-Impb inh	A1 inh	LANA-H2B inh	Calb FLC	MLL AF4-AF9 inh	T cruzi inh
COc1ccccc1NC(=O)CN1CCN(CC(=O)Nc2ccc(OCc3ccccc3)cc2)CC1	1%&-9%	7	6.4	0.6	-3.5	14	nt	-4
CCOC(=O)C1CCN(C(=O)Cn2cc3c(n2)CCC(C)C3)CC1 (stereo not drawn)	2%	-7	4.3	0.1	0.9	4	-5.0	-13
N#CCCN1CCN(S(=O)(=O)c2ccc3c(c2)OCCCO3)CC1	-3%	5	-0.5	0.1	6.8	-1	nt	-14
Cn1c(N)c(C(=O)CSc2ccc3c(c2)OCCO3)c(=O)n(C)c1=O	-3%	6	-4.0	0.6	2.5	-5	nt	-6

(list continues)
SMILES	Vif TR-FRET	Beta apoptosis	RanGTP-Impb inh	A1 inh	LANA-H2B inh	Calb FLC	MLL AF4-AF9 inh	T cruzi inh
COc1ccc(Cn2c(-c3ccccc3)nc3c(c(=O)c4ccccc4n3C)c2=O)cc1	nt	9	4.6	1.3	-11	30	nt	-4
c1ccc2c(c1)NCC1CCCN21 (stereo not drawn)	38µM*	55	3.3	1.1	-1.9	-4	15	37
CCOC(=O)Cc1csc(Nc2c(C)n(C)n(-c3ccccc3)c2=O)n1	2%	1	-2.8	-0.9	13	-2	nt	-3
CCCC(=O)N1CCN(c2ccc(NC(=O)c3ccc(Br)o3)cc2)CC1	7%&8%	7	-1.7	0.1	1.7	9	nt	-2
COc1cc(C(=O)Nc2ccccc2N2CCOCC2)ccc1OCC(=O)N1CCOCC1	4%	2	-6.2	0.6	0.2	nt	-3.9	16
O=C(/C=C/c1cccc([N+](=O)[O-])c1)Nc1ccc(Cl)cn1	-3%	4	0.4	0.0	-4.3	14	0.3	9
Cc1ccc(Nc2cc(C)nc3c(C)cccc23)cc1	nt	22	1.2	-0.1	-7.2	-16	5.3	39
O=C(C1CCCO1)N1CCN(C(=S)Nc2ccc(F)c(Cl)c2)CC1 (stereo not drawn)	-3%	-3	0.5	0.0	-3.4	-16	-0.6	-18
CCOC(=O)N1CCN(Cc2ccc(F)cc2F)CC1	6%	0	2.3	0.3	-1.4	-11	nt	-6

Single entries from the entries so far.
Cc1ccc(CSCC(=O)N(C)CC(=O)Nc2ccccc2C(F)(F)F)cc1 | Beta apoptosis = -1
COCCN1C(=O)c2oc3ccccc3c(=O)c2C1c1ccc(OC)c(OC)c1 (stereo not drawn) | MLL AF4-AF9 inh = -5.0
COc1ccc(Cl)cc1NC(=O)CNc1ccccc1CN(C)C1CCCCC1 | Calb FLC = 24

Bioassay records from PubChem BioAssay.

Hits appear at their usual frequency; about 4.3% have a hit in one of these screens.
